# Bioassay records deposited in PubChem BioAssay by National Center for Advancing Translational Sciences (NCATS).
# gsp agonist – qHTS for Agonist of gsp, the Etiologic Mutation Responsible for Fibrous Dysplasia/McCune-Albright Syndrome: qHTS. gsp mutant cells, cAMP HTRF, 30 min; control for the full effect not named in the record. Potency, µM (highest dose often 76.9 µM), for inactives: at the highest dose activation (cAMP increase), usual class: activators. 340,000 compounds, 0.13% hits. AID 624287, 2012; active = well fitted activation curve with a large enough effect; inconclusive = small, poorly fitted or top-dose-only effect, or another doubt; inactive = no such curve, though single readings can be large or run the other way; cell line not stated here;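 note: phosphodiesterase inhibitor Ro 20-1724 added with compounds to block cAMP breakdown; potency is the fitted concentration of half-maximal effect; nearly all actives have a fitted effect of over 60% in size; about a fifth of the inactives were tested at one dose only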
#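 Cells stably selected in G418 were plated at 2000/well, grown 16-24 hr, then given compounds in DMSO with the PDE inhibitor […] (300 uM solution added) for 30 min at 37C; cAMP was read by HTRF.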
# Menin MLL FP FL – qHTS Assay for Inhibitors Targeting the Menin-MLL Interaction in MLL Related Leukemias: Competition With Fluorescein Labeled MLL-derived Peptide; 290,000 tested, under 10 active; FP activity change, % at 61.4 µM; Fluorescence polarization, fluorescein-MLL peptide displacement from menin; inconclusive = falling polarisation curve, or a change in total fluorescence; inactive = total fluorescence flat and polarisation flat or rising; no compound was filed as active; the % refers to the polarisation; negative = inhibition;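 note: % of control where 0% means no effect; inhibitors lower the polarisation; unlabelled MLL peptide was the positive control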
# PINK1 expr mod – A Quantitative High throughput Screen to Identify Chemical Modulators of PINK1 Expression. PINK1 immunofluorescence, high-content cytometry, 24 h. Potency, µM (series often up to 76.6 µM), inactives show top-dose activation (PINK1 increase), usual class: activators. 410,000 compounds, 0.2% hits. AID 624263, 2012; active = well fitted activation curve with a large enough effect; inconclusive = small, poorly fitted or top-dose-only effect; inactive = flat fitted curve, though single readings scatter; cell line not stated here;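 note: potency is the fitted concentration of half-maximal effect; % of control where 0% means no effect; nearly all actives have a fitted effect of over 65% in size; a mitochondrial uncoupler was the plate control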
#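 PINK1 protein, normally rapidly degraded, was detected by immunofluorescence after 24 hour compound treatment of a stable cell line. Titration data (5 concentrations) came from laser-scanning cytometry, with CCCP-treated wells as controls.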
# Sfp inh – qHTS Assay for Inhibitors of Bacillus subtilis Sfp phosphopantetheinyl transferase (PPTase) | 4'-phosphopantetheinyl transferase ffp (Bacillus subtilis), Q9F4F7 | Biochemical Sfp PPTase activity, qHTS | Potency, µM, for inactives: max response, negative = inhibition, hits mostly inhibitors | 310,000 compounds, 3.5% hits | AID 1490, 2009; active = well fitted inhibition curve with a large enough effect; inconclusive = small, poorly fitted or top-dose-only effect, or another doubt; inactive = no such curve, though single readings can be large or run the other way;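 note: the enzyme is Sfp with the accession as filed and its product quenches rhodamine fluorescence; potency is the fitted concentration of half-maximal effect; 0% = enzyme reaction without inhibitor and -100% = no enzyme wells; top concentration of the series not given in the record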
#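 Fluorescence-quenching assay: 15 nM Sfp-PPTase preincubated 15 min at room temperature with compound, then 5 uM rhodamine-CoA and 12.5 uM BHQ-2-labelled YbbR peptide added. Fluorescence (ex 525/em 598 nm) read at start and after 30 min; difference gives rate.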
# gsp antag – qHTS for Antagonists of gsp, the Etiologic Mutation Responsible for Fibrous Dysplasia/McCune-Albright Syndrome: qHTS; Potency, µM (doses to about 76.9 µM), inactives show at the top dose activity change, negative = inhibition, most hits filed as inhibitors; gsp-mutant cells, cAMP HTRF, 30 min; control for the full effect not named in the record; 340,000 compounds, 0.4% hits; active = falling curve of any shape with a large fitted effect; inconclusive = falling curve, mostly with a smaller effect; inactive = flat or rising curve; cell line not stated here;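 note: intracellular cAMP measured with PDE inhibitor Ro 20-1724 present during compound exposure; potency is the fitted concentration of half-maximal effect; % is set by controls: 0 for no effect and ±100 for the full control effect; nearly all actives have a fitted effect of over 65% in size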
#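 Cells, 2000/well, grown 16–24 h in DMEM 10% FBS with 0.5 mg/ml G418, then compounds plus […] (300 uM addition stock), 30 min at 37C. cAMP read by HTRF (cAMP-d2 and anti-cAMP antibody-K in lysis buffer) after 30 min RT.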
# ClpP mod – qHTS Assay for Activators of ClpP; ATP-dependent Clp protease proteolytic subunit (Bacillus subtilis (strain 168)), P80244; purified B. subtilis ClpP, FRET peptide cleavage, 20 min; 340,000 compounds, 1.9% hits; Potency, µM (top dose mostly 57.5 µM), for inactives: at the highest dose activity change, negative = active; active = well fitted falling curve with a large enough effect; inconclusive = small, poorly fitted or top-dose-only effect; inactive = no such curve, though single readings can be large or run the other way; note: potency is the fitted concentration of half-maximal effect; the source files actives as falling curves though it sought activators and does not explain the sign; nearly all actives have a fitted effect of over 65% in size; many hits overshoot -100%
# Target sequence (P80244 whole entry, looked up): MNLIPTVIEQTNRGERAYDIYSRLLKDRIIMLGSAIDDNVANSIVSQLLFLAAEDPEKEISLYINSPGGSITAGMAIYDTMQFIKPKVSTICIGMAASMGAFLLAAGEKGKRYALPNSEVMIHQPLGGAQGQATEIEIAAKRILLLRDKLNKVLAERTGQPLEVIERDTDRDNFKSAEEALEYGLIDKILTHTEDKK
#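 Purified B. subtilis ClpP, 10 microg/mL final in Tris/HCl pH8 with KCl, BSA, glycerol and Tween-20, cleaved an Abz/nitrotyrosine-quenched decapeptide. Fluorescence (ex 320, em 430) was read at 0 and 20 min at room temperature. Delta was normalized to 5.8 microM ADEP and DMSO/no-enzyme controls.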
# D2 ag – Beta-Arrestin HTS for Positive Allosteric Modulators of the Human D2 Dopamine Receptor: Agonists; D(2) dopamine receptor (Homo sapiens), P14416; DiscoveRx PathHunter D2 beta-arrestin, luminescence, 90 min; 100% = 57 uM dopamine signal; activation, % (test concentration not listed); 360,000 compounds, 0.084% hits; in the data active = activation above about 40%; inconclusive = about 15% to 40%; inactive = below about 15%; note: compound concentration not given in the record; the text of the record calls up to 30% inactive
# Target sequence (P14416 whole entry, looked up): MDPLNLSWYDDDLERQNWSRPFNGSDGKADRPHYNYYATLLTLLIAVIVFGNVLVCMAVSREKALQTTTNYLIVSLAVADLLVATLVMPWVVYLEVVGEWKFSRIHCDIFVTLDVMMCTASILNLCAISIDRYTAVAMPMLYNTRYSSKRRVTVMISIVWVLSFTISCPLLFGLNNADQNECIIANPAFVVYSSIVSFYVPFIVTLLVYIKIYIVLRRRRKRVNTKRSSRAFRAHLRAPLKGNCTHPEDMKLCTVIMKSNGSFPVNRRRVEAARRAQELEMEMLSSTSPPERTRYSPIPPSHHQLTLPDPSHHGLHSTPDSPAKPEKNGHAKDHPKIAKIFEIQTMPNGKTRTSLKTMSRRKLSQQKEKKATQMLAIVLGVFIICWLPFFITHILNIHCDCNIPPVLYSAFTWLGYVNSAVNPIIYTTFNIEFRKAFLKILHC
#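 Agonist mode: compounds alone added to overnight-plated D2 PathHunter cells for 90 min at 37 C, with 57 uM final dopamine (EC100) defining full response. Beta-arrestin recruitment detected by chemiluminescent reagent, read after 1 h at ambient temperature.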
# Numbers without * were called inactive; ? = inconclusive; . = not tested or not shown; & = joins results of further samples; [ ] = another dose, or the depositor's remark.
SMILES,gsp agonist,Menin MLL FP FL,PINK1 expr mod,Sfp inh,gsp antag,ClpP mod,D2 ag
COc1ccccc1OCCNC(=O)C1CC(=O)N(c2ccccc2OC)C1 (centres undefined),-75.1%[inhibitor],.,-0.8%,.,-5.0%,-1.3%,9.2
Cc1cccc(-n2c(=O)c3ccccc3n3c(=S)[nH]nc23)c1C,-28.7%,-1.2,-0.2%,7.7%,-17.6%,.,-3.0
C#CCN(C[C@@H]1[C@@H](OC(=O)NCC2CCCCC2)[C@@H](OC(=O)NCC2CCCCC2)Cn2c(=O)n(CCCCCC)c(=O)n21)S(=O)(=O)c1ccc(C)cc1,25.4%,.,1.6%,.,.,-0.9%,-8.3
COc1ccc(S(=O)(=O)Nc2c(C)n(C)n(-c3ccccc3)c2=O)c(Cl)c1Cl,-16.8%,-4.7,-0.6%,4.4%,-2.5%,-2.2%,-1.4
COc1cccc(N(C(=O)c2cnccn2)C(C(=O)NC2CCCCC2)c2ccc(Cl)cc2)c1 (centres undefined),0.0%,4.4,1.5%,3.9%,-24.0%,-6.4%,-2.8
Cc1ccc(Cl)cc1N1CCN(S(=O)(=O)c2ccc3c(c2)CC(=O)N3C)CC1,14.5%,0.8,1.1%&0.0%,-1.3%,-3.2%,0.7%&2.0%,2.0
COc1ccc(-c2nc(N)ncc2Oc2ccccc2Br)c(O)c1,-5.1%,1.6,13.0%,-7.8%,-7.2%,1.4%,8.6
COc1ccc(-n2cc(-c3ccc(OC(F)F)cc3)[n+]3c2CCCCC3)cc1,-96.6%[inhibitor],-2.4,-0.7%,6.8%,4.9%,0.7%,-2.9
COc1cc(S(=O)(=O)Nc2ccc3c(c2)C(=O)N(C)C3=O)ccc1NC(C)=O,-18.3%,.,-3.2%,.,2.4%,.,-2.2
COc1ccccc1NC(=S)N(CCc1ccc(OC)c(OC)c1)Cc1ccccn1,30.1%[15.4 µM],-0.1,-0.7%,-14.8%,-25.7%,.,-0.2
CC1(C)NC(=O)N(CC(=O)OCC(=O)Nc2cccc(F)c2)C1=O,-2.3%,2.2,0.0%,22.3%,-0.2%,0.2%,-3.6
CCCCCN(C(=O)CCC(=O)OCC(=O)N1C(C)CCCC1C)c1c(N)n(CCCC)c(=O)[nH]c1=O (centres undefined),1.1%[15.4 µM],.,-0.9%,14.2%,7.0%,2.1%,-6.7
NC(=O)c1nsc(C(=O)N(c2ccccc2)C(C(=O)NC2CCCC2)c2cccs2)c1N (centres undefined),17.5%[15.4 µM],-2.8,0.2%,14.9%,1.7%,.,-1.5
CC1CCCCC1NC(=O)Cc1ccc(S(=O)(=O)N2CCOCC2)s1 (centres undefined),2.8%[15.4 µM],.,-0.6%,.,4.5%,1.2%,2.1
O=C(N/N=C/c1cccnc1)c1ccc(Cn2cc([N+](=O)[O-])cn2)o1,4.9%,-2.0,0.7%,6.5%,4.4%,.,-1.9
O=C(CSc1ccccn1)N1CCN(S(=O)(=O)c2ccc(Cl)cc2)CC1,-15.9%[15.4 µM],.,0.4%,.,-4.2%,.,-1.8
Cc1cccc(C)c1NC(=S)N/N=C/c1ccccc1C(=O)O,?,-0.9,1.7%,-3.0%,24.9%,0.3%,-4.7
COc1ccc(C(=O)C[n+]2ccc3c(c2)nc(-c2ccccc2)n3C)cc1,?,4.3,0.8%,15.7%,7.2%,-1.3%,-2.4
CC(C)(C)c1ccc(-n2ncc3c2CCCC3NC(=O)c2ccco2)cc1 (centres undefined),-27.9%,.,1.2%,.,.,1.4%,-2.9
CCCOP(=O)(c1ccc(N(C)C)cc1)C(O)c1ccc(Br)cc1 (centres undefined),-1.5%[15.4 µM],0.1,-3.0%,-1.2%,-26.7%,1.2%,-4.9
CCC(NC(=O)C1C2C=CC(C2)C1C(=O)O)c1ccc(C)cc1 (centres undefined),12.6%[15.4 µM],4.1,1.1%,3.5%,?,2.8%,1.5
CC1(C)OC(=O)C(=CNC(=O)c2c(F)cccc2F)C(=O)O1,9.7%[15.4 µM],0.8,1.8%,13.4%,.,.,-3.4
CN(C1CC(C)(C)NC(C)(C)C1)S(=O)(=O)CC12CCC(CC1=O)C2(C)C (centres undefined),-4.9%,-1.0,-0.6%,9.4%,19.3%,0.8%,-2.0
Cc1cccc(C2=NC(C(F)(F)F)(C(F)(F)F)c3c(n(-c4ccc(F)cc4)c(=O)[nH]c3=O)N2)c1,-8.2%,9.2,?,8.0%,?,206.4%,0.8
COc1ccc(C(=O)NCC(C)(C)CNC(=O)c2ccc(OC)cc2)cc1,0.3%[15.4 µM],.,-1.2%,.,-6.8%,.,-1.5
COc1ccc(N(CC(=O)NC2CCCCC2)C(=O)c2snc(C(N)=O)c2N)cc1,18.4%[15.4 µM],-3.5,-0.7%,22.6%,-8.0%,.,-1.9
COC(=O)C1=CN(c2cccc(Cl)c2)C=C(C(=O)OC)C1c1cccc(OC)c1,9.2%,-1.3,0.7%,-14.6%,-16.8%,3.1%,4.1
Cc1ccc(NC(C)C(=O)N/N=C/c2c[nH]c3ccccc23)cc1 (centres undefined),5.2%[15.4 µM],-0.2,7.2%,9.7%,0.8%,.,-1.6
O=C(NC(=S)Nc1ccc(S(=O)(=O)N2CCCC2)cc1)c1cccs1,-12.4%,19.4,0.3%,?,?,-7.8%,-1.3
O=C(Oc1ccc(-c2ccccc2)cc1)N1CCOCC1,-16.2%,3.3,10.2%[38.3 µM],-5.8%,-19.6%,2.2%,0.6
CC(NC(=O)CNC(=S)N(Cc1ccccc1)Cc1cccnc1)c1ccccc1 (centres undefined),0.5%[15.4 µM],-1.3,-0.9%,13.1%,-9.7%,-2.6%,0.7
Cc1cc(C(F)F)n2ncc(C(=O)NCc3ccccc3C(F)(F)F)c2n1,7.4%,3.6,0.7%,3.1%,3.9%,-5.4%,-3.1
COc1cccc(-c2cc(NC=O)c3ncc(-c4ccc(C(C)=O)cc4)n3c2)c1,.,.,-0.9%,.,.,?,4.8
Cc1ccc(CCN2CC(C(=O)NCCCOC(C)C)CC2=O)cc1 (centres undefined),-29.6%,-0.2,-3.9%[38.3 µM],9.7%,0.9%,0.3%,0.4
CC(C)(C)c1ccc(S(=O)(=O)NC(=O)C2(C)CCN2C(=O)C2CCCCC2)cc1 (centres undefined),.,.,0.9%,.,.,1.4%,1.8
C=CCOc1cccc(C(=O)N2CCCC(Nc3ccc4c(c3)OCCO4)C2)c1 (centres undefined),-15.8%,.,-0.8%,2.9%,-10.8%,-11.7%,-2.5
CCn1c2ccccc2c2cc(NC(=O)c3ccc(=O)oc3)ccc21,-3.5%[15.4 µM],?,1.9%,-15.2%,-4.8%,.,3.7
C/C(CC(=O)Nc1ccccc1F)=N\NC(=O)Cc1ccc(Cl)cc1,8.3%[15.4 µM],1.4,-1.0%,19.7%,1.9%,.,1.1
CCOC(=O)[C@@H]1[C@H]2COc3ccc(Br)cc3[C@@H]2N2C(=O)N(c3ccc(C)cc3)C(=O)[C@@]12C,-8.1%,.,-1.1%,.,-6.6%,-2.9%,-7.9
COc1ccc2[nH]c(C(=O)N3CCCN(Cc4ccc(F)cc4)CC3)cc2c1,14.1%,-0.7,-1.4%,20.7%,-5.8%,.,2.3
Cc1nn(C)c(Cl)c1NC(=O)OCc1ccc(F)cc1,-4.2%,-3.7,-2.3%,4.3%,-17.8%,-3.0%,-3.0
COc1cc(C(=O)OCC(=O)Nc2c(C)n(C)n(-c3ccccc3)c2=O)c([N+](=O)[O-])cc1OC,-1.8%,.,0.5%,.,8.8%,-3.1%,-4.2
CNC(=O)CN1C(=O)NC2(CCc3ccccc3C2)C1=O (centres undefined),-0.6%[15.4 µM],1.3,0.7%,6.5%,1.4%,.,-5.0
Cc1ccc(-c2c[n+](CC(=O)c3ccc(Br)cc3)c3n2CCCCC3)cc1,4.2%,-5.3,?,?,6.8%,.,-2.1
CCOC(=O)C1(C)C(=O)CC2c3nc4ccccc4cc3CN2C1=O (centres undefined),16.5%,.,3.0%,.,.,-4.7%,-26.9
Cc1ccc(OCC(=O)Nc2ccccc2-c2ccccc2)cc1,-8.0%,-3.6,3.4%[38.3 µM],10.0%,1.2%,-2.3%,-0.2
COc1ccc(N(C(=O)C2COc3ccccc3O2)C(C(=O)NC2CCCCC2)c2ccccc2)cc1OC (centres undefined),-24.5%,9.7,2.4%,17.6%,12.8%,-1.2%,-3.8
O=C(c1ccc2c(c1)OCO2)N(c1ccccc1)C1C=CS(=O)(=O)C1 (centres undefined),-23.2%,1.2,1.4%,12.4%,-2.8%,3.8%,-2.2
Cc1ccc(OCC(=O)NCCN2CCCC2)cc1,7.4%,2.2,-2.2%,7.2%,6.2%,-2.8%,-1.4
COc1cccc(C=NCCNC(=O)c2nonc2N)c1O,4.1%,1.6,-1.1%,44.7µM*,-1.1%,0.9%,-1.6
CCOC(=O)C1C(=O)OC2(CCCCC2)C1C(=O)OCC (centres undefined),10.5%,2.0,-0.8%[38.3 µM],3.2%,-4.2%,-1.1%,0.9
COc1ccc(Cl)cc1C(=O)Nc1nc(C)cc(C)n1,20.6%,2.1,-0.8%,13.9%,4.5%,-1.2%,-1.5

# Hits appear at their usual frequency, and some 5.1% of all compounds hit somewhere here.
